Screening results: PubChem BioAssay, several laboratories
Bead autofluor: compound fluorescence in toxin protease inhibitor counterscreen. fluorescence intensity (test concentration not listed). 360,000 compounds, 3.1% hits. compound autofluorescence counterscreen, microsphere flow cytometry; active compounds read high. AID 624483;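 active means at least 3 SD above the mean of all compounds, about 16000 in these data; inconclusive means too few beads counted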;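 further: 100 nL of 1 mM stock went into each well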
ugtP null kill: kills S. aureus RN4220 lacking UgtP | S. aureus RN4220 ugtP deletion, OD600 growth, 16 h; some inactives read as strong as hits | 330,000 compounds, 0.54% hits | growth inhibition, % (no concentration beside the values);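 active means z-score under -3 and OD600 up to 0.15 on both plates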;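 further: plate controls were untreated wells for no effect and antibiotic for full effect; wells of about 80 µL received 100 nL stock; the first replicate is given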
BJeLR lethal: kills HRASV12-expressing BJeLR cells. BJeLR (HRASV12) viability, CellTiter-Glo ATP luminescence, 48 h; reference of the scale not given here. inhibition, % (concentration not given with the values). 300,000 compounds, 0.17% hits. AID 1554;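 active means replicate mean above 50%; inconclusive means above 50% but judged a plate artefact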;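 further: 50 nL library stock added to about 25 µL; numbers are from one replicate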
RN4220 kill: S. aureus RN4220 growth inhibition | OD600, 16 h | inhibition, % (test concentration not listed) | 330,000 compounds, 0.33% hits | AID 1259311;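 active means z-score of -3 or lower and OD600 up to 0.18 on both plates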;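 further: plate controls were untreated cells for no effect and reference antibiotic for full effect; stock transfer was 100 nL into about 80 µL; one replicate is shown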
Mtb hypoxia inh: reduces hypoxia-regulated biosensor signal in M. tuberculosis; M. tuberculosis hypoxia-regulated fluorescent reporter, fluorescence; fluorescence inhibition, % (concentration not given with the values); 300,000 compounds, 0.1% hits;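 active means 35 to 45% if threefold the growth effect, above 45% if 1.5-fold the growth effect; inactive means the rest, general growth blockers included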;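 further: wells of about 50 µL received 100 nL stock; 0% = vehicle wells and 100% = reference inhibitor wells; whole bacteria with a GFP reporter of the hypoxia response; strong numbers were not always called active; many hits fall short of the cut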
PrP UTR inh: inhibition of PrP 5' UTR reporter expression; cell-based PrP 5' UTR mRNA reporter, plate reader; inhibition, % (concentration not given with the values); 340,000 compounds, 0.35% hits;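 active means every replicate at 50% or more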;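 further: 0 = median of the neutral control wells; tested in H4 reporter cells; numbers are from one replicate; inactives centre near -14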
Mtb hypoxia inh growth: recorded beside Mtb hypoxia inh, whose call it bears; growth inhibition, %; measured here: M. tuberculosis growth (absorbance);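 0% = vehicle and 100% = reference antibiotic; read after six days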
* = called active by the depositor; ? = inconclusive; . = not tested or not shown.

SMILES	Bead autofluor	ugtP null kill	BJeLR lethal	RN4220 kill	Mtb hypoxia inh	Mtb hypoxia inh growth	PrP UTR inh
CN1CCC(c2c[nH]c3ccccc23)C1 (stereo not drawn)	3195	.	0	.	.	.	-5
Cc1cc(C(=O)N2CCCC(N3CCN(c4cccc(C(F)(F)F)c4)CC3)C2)n[nH]1 (stereo not drawn)	6007	4	0	3.4	2	-2	-8
COc1ccc(NC(=O)C2OCCc3ccccc32)c(OC)c1 (stereo not drawn)	2125	5	4	2.1	.	.	4
O=C(/C=C/c1ccco1)NCc1ccccn1	2183	-1	6	3.0	2	0	-10
C=CCn1c(N=Cc2ccc(OC)cc2)nc2ccccc21	.	8	.	5.4	7	4	.
CC1(c2nnc(-c3ccc(Cl)cc3)o2)CC(c2ccc([N+](=O)[O-])cc2)=NO1 (stereo not drawn)	3767	10	-7	6.3	7	13	-44
CN(C)S(=O)(=O)c1cccc(COC(=O)CCNC(=O)c2ccc([N+](=O)[O-])cc2)c1	?	0	.	2.6	-3	3	1
COc1ccc(OCC(=O)NNC(=O)c2ccc(-c3ccccc3)cc2)cc1	9760	-1	-9	1.2	2	2	-18
NC(=S)NN=Cc1ccccc1OCc1ccccc1	.	-3	.	9.4	18	9	.
O=C(COc1ccccc1Cc1ccccc1)Nc1cccnc1	3389	-2	.	5.4	2	1	-3
CC(C)c1ccc(OCC(=O)N2CCN(C(=O)c3ccco3)CC2)cc1	5418	9	-5	1.3	12	7	-20
O=C(NCC1CCN(C(=O)c2ccc([N+](=O)[O-])cc2)CC1)c1ccc([N+](=O)[O-])cc1	5748	15	-4	1.9	-10	8	-10
O=S1(=O)NC(=NCCOCCO)c2ccccc21	4767	6	5	1.4	4	-2	-22
CC(C)(C)OC(=O)CC12CCCCC1NC(=O)O2 (stereo not drawn)	4161	-1	-7	4.4	5	7	-28
COc1cc(C(=O)NCC(c2cccs2)N2CCOCC2)c([N+](=O)[O-])cc1OC (stereo not drawn)	6483	12	6	-0.8	6	3	-15
COc1ccccc1CN1CCN(C(=O)c2cccc3ccccc23)CC1	.	7	1	5.7	12	5	.
Cc1ccc(C(CC(=O)N2CCCCC2)c2ccccc2)c(O)c1C (stereo not drawn)	6356	5	-12	3.7	3	1	-32
COC(=O)C1=C(C)NC(=S)N(C(C)=O)C1c1ccccc1 (stereo not drawn)	3632	-5	-4	0.5	.	.	-13
O=C(NCc1ccncc1)C(=O)NCC(c1ccco1)N1CCN(c2ccccc2F)CC1 (stereo not drawn)	10568	14	-6	5.4	4	7	-14
COc1ccc(Cn2c(O)c(/C=N/NC(=O)c3ccccc3O)c(=O)[nH]c2=O)cc1	2280	-2	0	1.6	-10	-7	-47
Cc1ccc(C(=O)/C=C/N(C)C)o1	2569	12	0	6.9	12	10	-29
N/C(=N\OC(=O)c1ccc2ccccc2c1)c1ccc(Br)cc1	2663	-3	-14	-2.0	-3	-2	-43
CCc1nc(SCc2ccc(Cl)cc2)n[nH]1	2745	5	-8	0.9	2	2	-43
CCOc1ccccc1CNS(=O)(=O)c1csc(C(N)=O)c1	5426	2	6	4.0	2	7	-34
CC(=O)Nc1ccc(-c2csc(NNC(=O)c3ccc(C)cc3)n2)cc1	4557	-15	.	6.8	13	5	-31

The list goes on:
SMILES	Bead autofluor	ugtP null kill	BJeLR lethal	RN4220 kill	Mtb hypoxia inh	Mtb hypoxia inh growth	PrP UTR inh
COc1ccc(CNC(=O)C[C@H]2C[C@H](C(=O)N3CCOCC3)[C@@]3(C)c4[nH]c5ccc(Cl)cc5c4CCN3C2=O)cc1OC	3329	3	.	2.7	-12	8	-10
CC(=O)c1cnn(-c2c(Cl)cc(Cl)cc2Cl)c1C	2937	7	5	-0.6	6	4	3
O=C(c1cc(-c2cccc(Cl)c2)on1)N1CCc2ccccc2C1	4343	-2	-9	2.8	5	-6	1
COc1ccc(CCNC(=O)COC(=O)c2cc(OC)c(OC)cc2OC)cc1OC	2150	6	-11	-0.2	10	1	-31
Cc1ccc(-c2csc(NC(=O)CN3CCOCC3)n2)cc1C	.	2	4	-1.8	-2	-7	-13
C[C@H](CO)N1C[C@H](C)[C@@H](CN(C)S(C)(=O)=O)Oc2ccc(NS(=O)(=O)c3cn(C)cn3)cc2C1=O	3997	2	.	3.3	5	7	90*
O=C(CCC(=O)N1C[C@H]2C[C@@H](C1)c1cccc(=O)n1C2)NCc1ccccc1	5434	0	-1	4.3	.	.	-20
O=C(CCNC(=O)c1ccccc1)NC1CCCc2ccccc21 (stereo not drawn)	?	2	.	2.8	2	-4	-12
O=C(CCCN1C(=O)c2cccc3cccc(c23)C1=O)NC1CCS(=O)(=O)C1 (stereo not drawn)	5382	6	-14	4.7	-2	12	-9
Cc1cc2nc(C)c(=O)n(C)c2cc1C	9224	-2	-1	-2.3	3	-4	-15
O=C(NCCCCCCNC(=O)c1ccc(Br)s1)c1ccc(Br)s1	23002*	-13	-3	-4.2	4	7	-21
O=C1OC(c2ccccc2)c2ccccc21 (stereo not drawn)	2397	0	-11	9.7	2	5	-26
O=C(OCCCOc1ccc(F)cc1)c1ccc(O)cc1O	6143	3	5	7.4	7	-3	-23
Oc1ccccc1Cn1nnc2ccccc21	3272	5	-6	2.5	1	0	-20
CCOC(=O)c1c(NC(C)=O)sc2c(OC(C)=O)cccc12	5388	3	1	2.0	8	8	-24
Cc1nn(-c2ccccc2)c(C)c1C=NNC(=O)c1ccccc1NS(=O)(=O)c1cccs1	.	-4	.	18	4	5	.
Cc1ccc(NC(=O)CSc2nnc(-c3cnccn3)n2Cc2ccco2)cc1	17381*	6	-4	3.8	0	1	-8
Cc1nc([N+](=O)[O-])c(Br)n1CC(=O)c1ccc(Br)cc1	6460	20	-7	17	15	17	-6
C[C@@H]1CN([C@H](C)CO)C(=O)c2cccc(NS(=O)(=O)c3ccccc3)c2O[C@H]1CN(C)C	3413	1	.	1.9	-1	2	-14
O=C(NC1CCCCC1)C(c1ccncc1)N(C(=O)Cn1nnc(-c2cccs2)n1)C1CCCC1 (stereo not drawn)	8988	10	.	5.1	13	4	-18
COc1ccc(C(=O)N(CN2CCCC2=O)c2cc(C)on2)cc1OC	21141*	-11	-5	8.4	10	7	-10
CS(=O)(=O)c1ccc(NCCc2ccc(S(N)(=O)=O)cc2)c([N+](=O)[O-])c1	5310	9	1	1.5	3	7	-3
Cc1ccc(C)c(S(=O)(=O)Nc2ccc3oc(C)c(C(=O)O)c3c2)c1	5122	-4	-8	5.0	7	1	-9
O=C(COC(=O)C1CC1)Nc1ncc(C(F)(F)F)cc1Cl	4314	0	-6	6.0	9	7	-13
C=C(C)c1cccc(C(C)(C)NC(=O)N(Cc2ccccc2)Cc2ccco2)c1	2831	4	12	7.3	8	4	-88

Fetched one by one from the list above:
SMILES	Bead autofluor	ugtP null kill	BJeLR lethal	RN4220 kill	Mtb hypoxia inh	Mtb hypoxia inh growth	PrP UTR inh
COc1cc(C(=O)NCC(c2cccs2)N2CCOCC2)c([N+](=O)[O-])cc1OC (stereo not drawn)	6483	12	6	-0.8	6	3	-15
O=C(NCCCCCCNC(=O)c1ccc(Br)s1)c1ccc(Br)s1	23002*	-13	-3	-4.2	4	7	-21
Cc1cc(C(=O)N2CCCC(N3CCN(c4cccc(C(F)(F)F)c4)CC3)C2)n[nH]1 (stereo not drawn)	6007	4	0	3.4	2	-2	-8
Cc1ccc(-c2csc(NC(=O)CN3CCOCC3)n2)cc1C	.	2	4	-1.8	-2	-7	-13
CC(=O)c1cnn(-c2c(Cl)cc(Cl)cc2Cl)c1C	2937	7	5	-0.6	6	4	3
O=C(CCCN1C(=O)c2cccc3cccc(c23)C1=O)NC1CCS(=O)(=O)C1 (stereo not drawn)	5382	6	-14	4.7	-2	12	-9

As entered above.
`COc1ccc(C(=O)N(CN2CCCC2=O)c2cc(C)on2)cc1OC` | Mtb hypoxia inh growth = 7
`COc1ccc(CCNC(=O)COC(=O)c2cc(OC)c(OC)cc2OC)cc1OC` | ugtP null kill = 6

More entries follow.
SMILES	Bead autofluor	ugtP null kill	BJeLR lethal	RN4220 kill	Mtb hypoxia inh	Mtb hypoxia inh growth	PrP UTR inh
COc1cccc(-n2c(N)cc(=O)nc2SCC(=O)N2CCN(c3ccccc3)CC2)c1	5134	-1	-23	-1.4	4	13	-41
O=C(NCCCNC(=O)c1cnccn1)c1cccc(Cl)c1	5934	4	-6	1.0	2	1	-14
O=C(CN1CCOCC1)Nc1ccccc1-c1ccccc1	9972	-1	-1	11	18	6	-14
C=CCc1cccc2cc(C(=O)OCC(=O)c3ccccc3)c(=O)oc12	.	-6	-5	-11	1	2	-8
CC(C(=O)OCC(=O)Nc1ccc(S(N)(=O)=O)cc1)N1C(=O)c2ccccc2C1=O (stereo not drawn)	4088	1	.	-1.2	4	-1	-2
CC1CC(C)CN(C(=O)CN2C(=O)NC3(CCCCCCC3)C2=O)C1 (stereo not drawn)	3474	-1	.	-3.6	5	7	-13
CC(C)CNc1nnnc2c1sc1nc(N3CCOCC3)c3c(c12)CC(C)(C)SC3	4378	-14	10	18	.	.	10
CCOC(=O)C1CCCCN1Cc1cccc(F)c1 (stereo not drawn)	9592	7	-3	7.9	12	7	-11
Nn1c(SCCOc2ccccc2)nnc1-c1cccnc1	3251	6	-9	4.3	11	2	-14
O=C(/C=C/c1ccc2c(c1)OCCO2)c1ccccc1	.	-3	-13	5.5	23	17	-103
CC(C)N(C(=O)Cn1c(-c2cccnc2)ccc(C#N)c1=O)C(C)C	4491	6	0	4.1	18	0	-11
Cc1ccnc(NC(=O)c2ccc(OCc3c(C)noc3C)cc2)c1	.	-2	.	-0.2	0	4	-62
CCCCC(O)(c1ccc(F)cc1)C(CN1CCOCC1)c1ccc(Cl)cc1 (stereo not drawn)	3617	-9	-4	-1.3	0	-7	-38
Cn1c(=O)[nH]c(=O)c2c1nc(Sc1ncccn1)n2CCCc1ccccc1	4658	6	3	4.8	6	3	0
N#Cc1cnn(-c2nc3sc4c(c3c(=O)[nH]2)CCCC4)c1N	2365	3	2	29	-9	-6	-13
COc1ccccc1C=NNC(=O)c1ccc(CN2C(=O)c3cccc4cccc2c34)cc1	.	-4	.	-6.9	-4	-1	.
CC/C(=N\NC(=O)c1ccccc1)c1c(O)n(C2CCCCC2)c(=O)[nH]c1=O	5549	12	-5	3.8	0	1	-13
COc1ccc(Br)cc1/C=N/NC(=O)c1cccnc1	4133	.	-10	.	.	.	-25
Cc1ccc(OCc2cc(C(=O)N3CC4C[C@@H]5CC3C[C@H](C4)C5)no2)cc1C	6606	5	-3	5.6	7	9	-70
CCC(C)NC(=O)c1cn(CC)c2ccc(S(=O)(=O)N3CCCCCC3)cc2c1=O (stereo not drawn)	4572	13	2	8.6	-8	-8	-3
Cc1cc(C)c(N2CCN(S(=O)(=O)N3CCCCCC3)CC2)c(C)c1	3234	28	-1	1.4	.	.	0
CC1=CCC2C(=O)N(c3ccc4ccccc4n3)C(=O)C2C1 (stereo not drawn)	2857	2	-13	8.2	16	10	-17
O=C(Cc1cccs1)NCC1CCCO1 (stereo not drawn)	9448	3	-9	4.6	11	10	-27
CC1=C(C(=O)Nc2cccc(C(=O)NCc3ccc(F)cc3)c2)SCCO1	4176	1	-18	4.6	1	1	-23
O=C(CN(C(=O)CNS(=O)(=O)c1ccc(F)cc1)c1ccccc1F)NCc1ccco1	2961	4	-4	5.7	13	4	-7

Additional records follow.
SMILES	Bead autofluor	ugtP null kill	BJeLR lethal	RN4220 kill	Mtb hypoxia inh	Mtb hypoxia inh growth	PrP UTR inh
O=C(O)CNc1nc(-c2ccccc2)nc2c1oc1ccccc12	4190	4	6	7.0	5	17	-11
COC(=O)C1=C(C(=O)OC)[C@@H]2Nc3ccccc3[C@@]23C[C@@H](C(=O)OC)N(C(=O)CC(C)C)C3=N1	3091	.	-5	.	.	.	-9
CC1(C)CC(=O)c2sc(NS(=O)(=O)c3ccc([N+](=O)[O-])cc3)nc2C1	5244	8	3	3.2	2	-10	-7
COc1ccc(C)cc1NC(=O)C1CCN(C(=O)C2CC(=O)N(c3ccc(C)cc3)C2)CC1 (stereo not drawn)	4804	-4	-3	4.1	-4	1	1
N=C1/C(=C/c2cccn2Cc2ccc(F)cc2)C(=O)N=C2SC=CN12	4620	0	-11	-0.9	18	6	-19
CC(C)CN1CCNC(=O)C1CC(=O)NCc1cnn(-c2cccc(F)c2)c1 (stereo not drawn)	3648	1	2	2.4	11	5	-1
O=C(Nc1ccccc1C(F)(F)F)c1cnccn1	3209	0	4	-0.9	0	0	-17
